Source: PubChem
AID923: qHTS Assay for Allosteric/Competitive Inhibitors of Caspase-1: Spectroscopic Profiling in AFC Spectral Region; actives 1.1% (n = 75,000); Potency, µM (titrated, usually from 57.5 µM), inactives show top-dose fluorescence increase, hits mostly activators; AID 923, 2007; compound fluorescence, AFC spectral region (405/520 nm); almost no hit is shown here; active = well fitted activation curve with a large enough effect; inconclusive = small, poorly fitted or top-dose-only effect;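 also: potency is read from the fitted curve at half-maximal effect; 0% is about no effect; scaled to a free AFC standard on each plate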
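Titrations up to 57 uM read every 20 sec for 3 min (405/520 nm) with 50 nM caspase 1 and 5 uM Ac-WEHD-AFC, pH 7.5 HEPES buffer. Fluorescence-vs-time intercept gave baseline, scaled against on-plate AFC standard.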
A647 autofl: compound fluoresces in the A647 spectral region | max dye-equivalent concentration, M | AID 592 | Compound fluorescence, A647 channel (570/671 nm), Tris buffer | 59,000 tested, under 10 active; active means above 1 µM dye equivalent; inconclusive means 0.1 to 1 µM; inactive means 0.1 µM or less;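 also: values scaled relative to a standard on each plate; highest value over a series up to 38 µM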
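Compounds pinned into 100 mM Tris pH 8.0, 15 min at room temperature, then read with 570 nm excitation/671 nm emission filters. Fluorescence normalized to an on-plate six-point Alexa 647 standard curve, giving dye-equivalent concentration per compound concentration.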
Resorufin fluor: compounds fluorescent in resorufin spectral region; Compound fluorescence, resorufin region 547/598 nm, buffer; stronger effect = higher value; max dye-equivalent concentration, M; actives 0.04% (n = 59,000); active = above 10 nM dye equivalent; inconclusive = 1 to 10 nM; inactive = 1 nM or less; a few of its hits are not listed in these tables; also: highest value over a series up to 38 µM
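Dye-equivalent concentration values derive from comparing each well's 547/598 nm fluorescence against resorufin standards included on every plate. Incubation was 15 min at room temperature in 100 mM Tris, pH 8.0.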
A488 autofl: compound fluoresces in the A488 spectral region. compound autofluorescence, A488 spectral region, dye equivalency; stronger effect = higher value. max dye equivalency, M. actives 0.1% (n = 59,000). AID 591; active = above 10 nM dye equivalent; inconclusive = 1 to 10 nM; inactive = 1 nM or less; about half of its hits are not listed in these tables;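 also: highest value over a series up to 38 µM; compound alone in buffer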
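Spectroscopic profiling in the A488 region: compounds in pH 8.0 Tris (100 mM), 15 min RT, CCD imaging with 480 nm excitation and 540 nm emission; responses normalized against A488 dye standards.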
TSHR agonist: TSH receptor (human) agonism | P16473 | HEK293-CNG-TSHR cells (CNG channel as cAMP sensor), membrane potential dye, cAMP | Potency, µM (titrated, usually from 57.1 µM), for the others: at the top dose activation, most hits filed as activators | actives 0.48% (n = 73,000); active = well fitted activation curve of enough size with the parental cells flat; inconclusive = any curve in the parental cells; inactive = parental cells flat and receptor cells flat or falling; also: potency is read from the fitted curve at half-maximal effect; % of control where 0% means no effect; weak receptor curves with flat parental cells got no call and are not listed
Target sequence (P16473 whole entry, looked up): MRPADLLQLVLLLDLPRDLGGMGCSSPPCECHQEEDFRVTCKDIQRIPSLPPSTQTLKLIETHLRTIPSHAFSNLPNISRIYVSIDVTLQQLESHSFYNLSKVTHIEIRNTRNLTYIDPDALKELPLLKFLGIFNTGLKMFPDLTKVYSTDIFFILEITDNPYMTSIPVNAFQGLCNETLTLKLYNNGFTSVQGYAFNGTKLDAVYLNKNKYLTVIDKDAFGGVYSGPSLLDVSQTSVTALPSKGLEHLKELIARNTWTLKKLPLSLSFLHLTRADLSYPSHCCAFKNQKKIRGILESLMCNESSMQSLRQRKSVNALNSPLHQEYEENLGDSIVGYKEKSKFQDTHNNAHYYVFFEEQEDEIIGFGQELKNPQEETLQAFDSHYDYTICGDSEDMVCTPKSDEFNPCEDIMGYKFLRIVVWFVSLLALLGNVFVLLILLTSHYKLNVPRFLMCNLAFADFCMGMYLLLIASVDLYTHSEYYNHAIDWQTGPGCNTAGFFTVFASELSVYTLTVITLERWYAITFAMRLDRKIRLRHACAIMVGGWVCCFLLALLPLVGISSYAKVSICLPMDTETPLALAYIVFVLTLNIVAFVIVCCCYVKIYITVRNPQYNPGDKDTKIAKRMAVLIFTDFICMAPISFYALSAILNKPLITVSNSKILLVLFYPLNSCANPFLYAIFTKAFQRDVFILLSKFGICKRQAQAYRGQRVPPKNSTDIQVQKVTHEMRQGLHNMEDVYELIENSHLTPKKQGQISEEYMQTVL
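HEK 293 cells stably expressing TSHR and a modified CNG channel, with CNG-only parental cells as counterscreen, were preloaded 60 min at room temperature with membrane potential dye containing 100 uM RO 20-1724. Compound exposure was 30 min, and depolarization was read as fluorescence at 590 nm.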
* = called active by the depositor; [ ] = remark or other dose.

What do the screens show for `CCCOc1ccc(C2c3c(oc4cc(C)c(C)cc4c3=O)C(=O)N2CCCN(C)C)cc1` (centres undefined)?
AID923: 4.2%; TSHR agonist: 15.0%

Results for CSc1nnnn1-c1ccc(C(=O)OCC(=O)N2CCOCC2)cc1 ?
AID923: 2.3%; A647 autofl: 4.8e-09; Resorufin fluor: inactive; A488 autofl: inactive; TSHR agonist: 1.5%

Results for COc1ccc(CCNC(=O)Cn2cnc3c(cnn3C(C)(C)C)c2=O)cc1OC ?
AID923: 0.5%; A647 autofl: 1.18e-08; Resorufin fluor: inactive; A488 autofl: inactive; TSHR agonist: 0.0%

Results for O=c1c2c(nc3nc(CCc4ccccc4)[nH]n13)CCC2 ?
AID923: 0.1%; A647 autofl: 1e-09; Resorufin fluor: inactive; A488 autofl: inactive; TSHR agonist: 12.6%

How did CCc1noc2c1/C(=N\O)CC(c1ccccc1)C2 (centres undefined) do in these assays?
AID923: 0.1%; TSHR agonist: 1.2%

How did Cc1ccc(C2C(C#N)=C(N)Oc3c2oc(CO)cc3=O)o1 (centres undefined) do in these assays?
AID923: 10.0%; A647 autofl: 3.13e-08; Resorufin fluor: inactive; A488 autofl: inactive; TSHR agonist: -4.8%

What do the screens show for `O=S(=O)(c1ccc(F)cc1)N1CCC(N2CCN(c3ccccc3)CC2)CC1`?
AID923: -1.2%; A647 autofl: 4.42e-08; Resorufin fluor: inactive; A488 autofl: inactive; TSHR agonist: 3.6%

What do the screens show for `COc1cccc(-n2nnnc2SCC(=O)NCCc2ccccc2)c1`?
AID923: 1.8%; A647 autofl: 4.26e-08; Resorufin fluor: inactive; A488 autofl: inactive; TSHR agonist: inconclusive

Results for COC(=O)c1ccc(C(/C=C/[C@@H](C)C(=O)NCc2cc(C)n(C)n2)NC(=O)OCc2ccccc2)cc1 (some centres undefined) ?
AID923: -0.2%; TSHR agonist: 19.6%

What do the screens show for `CCOc1cccc(-c2nnc3sc(-c4ccco4)nn23)c1`?
A647 autofl: 1e-09; Resorufin fluor: inactive; A488 autofl: inactive

Results for CCN(C(=O)CSc1nnc(-c2ccccc2Cl)n1C1CCCC1)C1CCS(=O)(=O)C1 (centres undefined) ?
AID923: 0.3%; A647 autofl: 1e-09; Resorufin fluor: inactive; A488 autofl: inactive; TSHR agonist: -3.9%

Results for CCNc1nc(NCC)nc(-n2nc(C)cc2C)n1 ?
AID923: -1.5%; TSHR agonist: -16.6%

What do the screens show for `OCCN(Cc1ccccc1)CC1CCCCC1`?
AID923: -1.9%; A647 autofl: 6.56e-08; Resorufin fluor: inactive; A488 autofl: inactive; TSHR agonist: 22.3%

What do the screens show for `CSc1nc2nc(-c3ccccc3)cc(C(F)(F)F)n2n1`?
AID923: 4.7%; A647 autofl: 1.9e-08; Resorufin fluor: inactive; A488 autofl: inactive; TSHR agonist: 28.9%

How did CCc1nn(C(C)C(=O)N2CCN(Cc3ccccc3)CC2)c(=O)c2cc3occc3n12 (centres undefined) do in these assays?
AID923: 2.1%; TSHR agonist: 7.2%

How did O=C(NCc1cccnc1)Nc1cccc(NC(=O)NCc2cccnc2)c1 do in these assays?
AID923: -1.4%; A647 autofl: 2.6e-09; Resorufin fluor: inactive; A488 autofl: inactive; TSHR agonist: 8.4%[11.4 µM]

Results for COC(=O)CSc1nc2sc3c(c2c(=O)n1C1CCCCC1)CCN(C)C3 ?
A647 autofl: 3.07e-08; Resorufin fluor: inactive; A488 autofl: inactive

Results for N#Cc1nc(-c2ccccc2F)oc1NCCc1ccccn1 ?
AID923: -3.0%; A647 autofl: 3.21e-08; Resorufin fluor: inactive; A488 autofl: inactive; TSHR agonist: 0.8%

What do the screens show for `CCOc1ccc2nc(C)cc(C(=O)O)c2c1`?
AID923: 0.4%; A647 autofl: 1e-09; Resorufin fluor: inactive; A488 autofl: inactive

Results for COCCCNC(=O)COc1ccc(Cl)c(C)c1 ?
AID923: 0.8%; TSHR agonist: 27.0%

What do the screens show for `COc1ccc2c(c1)CCc1c(C(=O)Nc3c(C)n(C)n(-c4ccccc4)c3=O)noc1-2`?
AID923: 0.7%; A647 autofl: 1e-09; Resorufin fluor: inactive; A488 autofl: inactive; TSHR agonist: -4.3%

What do the screens show for `Cc1ccc(-c2nc(N)n(C(=O)c3cccnc3)n2)cc1`?
AID923: -1.7%; A647 autofl: 6.51e-08; Resorufin fluor: inactive; A488 autofl: inactive; TSHR agonist: -0.6%

What do the screens show for `COCc1cc(=O)n2c(-c3ccccc3OC)n[nH]c2n1`?
AID923: 1.9%; A647 autofl: 5.02e-08; Resorufin fluor: inactive; A488 autofl: inactive; TSHR agonist: inconclusive

How did C=CCn1c(SCC(=O)Nc2ccc(C(=O)OCC)cc2)nnc1-c1sc(N)nc1C do in these assays?
AID923: -1.8%; A647 autofl: 1e-09; Resorufin fluor: inactive; A488 autofl: inactive; TSHR agonist: -1.6%

What do the screens show for `CC(NS(C)(=O)=O)C(c1cccs1)N1CCN(Cc2ccccc2)CC1` (centres undefined)?
AID923: 0.8%; TSHR agonist: 19.2%

How did Cc1nc(N2CCN(c3ncccn3)CC2)c2oc3ccccc3c2n1 do in these assays?
AID923: 1.1%; A647 autofl: 2.29e-08; Resorufin fluor: inactive; A488 autofl: inactive; TSHR agonist: inconclusive

What do the screens show for `O=C(CSc1ccc2c(c1)OCCO2)NC(=O)NC1CCCC1`?
AID923: -0.5%; A647 autofl: 3.54e-08; Resorufin fluor: inactive; A488 autofl: inactive

Results for Cc1cc(C)n2nc(SCC(=O)N(C(C)C)C(C)C)nc2n1 ?
AID923: -0.5%; A647 autofl: 1.24e-08; Resorufin fluor: inactive; A488 autofl: inactive; TSHR agonist: 3.8%

What do the screens show for `O=C(OCC(=O)N1CCCC1)c1cncc(Br)c1`?
AID923: 0.3%; A647 autofl: 3.4e-09; Resorufin fluor: inactive; A488 autofl: inactive; TSHR agonist: 0.8%

How did Cc1cc(C)c(C#N)c(SCS(=O)Cc2ccc(Cl)cc2)n1 (centres undefined) do in these assays?
AID923: -0.5%; A647 autofl: 6.2e-09; Resorufin fluor: inactive; A488 autofl: inactive; TSHR agonist: inconclusive

What do the screens show for `CN(C)C(=O)c1ccc(-c2ccc3ncnc(N(C)C)c3c2)cc1`?
AID923: 2.1%; A647 autofl: 1e-09; Resorufin fluor: inactive; A488 autofl: inactive; TSHR agonist: 8.8%

How did CCCc1[nH]nc2c1C(c1ccccc1OCC)C(C#N)=C(N)O2 (centres undefined) do in these assays?
AID923: 1.1%; A647 autofl: 1e-09; Resorufin fluor: inactive; A488 autofl: inactive; TSHR agonist: 8.9%

What do the screens show for `CCc1nc(SCC(=O)Nc2ccnc3ccccc23)n[nH]1`?
AID923: 1.6%; A647 autofl: 4.61e-08; Resorufin fluor: inactive; A488 autofl: inactive; TSHR agonist: 7.6%

Results for CCNc1ncc2nc(C)c(=O)n(Cc3ccc(F)cc3)c2n1 ?
AID923: 7.2%; A647 autofl: 4.6e-09; Resorufin fluor: inactive; A488 autofl: inactive; TSHR agonist: -1.0%

What do the screens show for `CCOC(=O)c1c(C)c(C(=O)Nc2ccc3c(c2)OCCO3)c(C)n1CC`?
AID923: 2.1%; A647 autofl: 9.9e-09; Resorufin fluor: inactive; A488 autofl: inactive

What do the screens show for `Cc1ccc(N2CC(C(=O)NCCC(C)C)CC2=O)cc1` (centres undefined)?
AID923: 0.3%; A647 autofl: 4.4e-09; Resorufin fluor: inactive; A488 autofl: inactive; TSHR agonist: 3.6%

How did O=S(=O)(c1cccs1)N1CCN(Cc2nc3ccccc3s2)CC1 do in these assays?
AID923: 1.7%; A647 autofl: 2.45e-08; Resorufin fluor: inactive; A488 autofl: inactive; TSHR agonist: inconclusive

How did COc1ccc(CN2CC(C(=O)NCCN3CCOCC3)CC2=O)cc1 (centres undefined) do in these assays?
AID923: -0.5%; A647 autofl: 2.97e-08; Resorufin fluor: inactive; A488 autofl: inactive; TSHR agonist: 4.3%

Results for CCC(C)NC(=O)c1ccccc1NC(=O)CN1C(=O)c2ccccc2S1(=O)=O (centres undefined) ?
AID923: 3.9%; TSHR agonist: 13.5%

How did O=C(COc1ccccc1Cl)N1CCN(c2ccc(F)cc2)CC1 do in these assays?
AID923: -1.0%; A647 autofl: 2e-09; Resorufin fluor: inactive; A488 autofl: inactive; TSHR agonist: -0.4%

What do the screens show for `COc1ccccc1N1CCN(CC(=O)Nc2ccc(CN3CCCCC3)cc2)CC1`?
AID923: -2.3%; A647 autofl: 1.06e-08; Resorufin fluor: inactive; A488 autofl: inactive; TSHR agonist: 3.4%

What do the screens show for `O=C(CN1CCN(S(=O)(=O)c2ccc(F)cc2)CC1)Nc1cc(C(F)(F)F)ccc1Cl`?
AID923: 0.6%; A647 autofl: 2.8e-08; Resorufin fluor: inactive; A488 autofl: inactive; TSHR agonist: inconclusive

What do the screens show for `Cc1cc(C)c2nc(N3CCC(C(=O)N4CCCC4)CC3)sc2c1`?
AID923: -0.2%; A647 autofl: 2.72e-08; Resorufin fluor: inactive; A488 autofl: inactive; TSHR agonist: 0.3%

How did CC1=C(C(=O)NCCCOC(C)C)C2(CCC(C)CC2)OC1=O (centres undefined) do in these assays?
AID923: 0.7%; TSHR agonist: -2.1%

What do the screens show for `CCN(CC)CCCn1c(=S)[nH]c2ccccc2c1=O`?
AID923: 0.9%; A647 autofl: 1.5e-09; Resorufin fluor: inactive; A488 autofl: inactive; TSHR agonist: -0.9%

What do the screens show for `Clc1cccc(OCCn2cncn2)c1Cl`?
AID923: -2.8%; A647 autofl: 1e-09; Resorufin fluor: inactive; A488 autofl: inactive; TSHR agonist: -0.5%

Results for CCC(=O)N1CCc2cc(S(=O)(=O)NC(Cc3ccccc3)C(=O)NC3CCCC3)ccc21 (centres undefined) ?
AID923: 0.0%; A647 autofl: 1e-09; Resorufin fluor: inactive; A488 autofl: inactive; TSHR agonist: 7.4%

How did COc1ccc(C(=O)N2CCC3(CCCN(Cc4ccccc4OC)C3)CC2)cc1 do in these assays?
AID923: 0.2%; A647 autofl: 1.21e-08; Resorufin fluor: inactive; A488 autofl: inactive; TSHR agonist: 26.5%

Results for Cn1cccc1Cc1nnc(SCC(=O)N2CCc3ccccc32)n1-c1ccc(F)cc1 ?
AID923: -1.1%; TSHR agonist: -4.5%

Results for CC(C)c1nc2oc3c(NCC4CCCO4)ncnc3c2c2c1COC(C)(C)C2 (centres undefined) ?
AID923: -0.2%; A647 autofl: 4.68e-08; Resorufin fluor: inactive; A488 autofl: inactive; TSHR agonist: 5.7%

What do the screens show for `c1ccc(-c2nc3ccccc3s2)nc1`?
AID923: 0.5%; A647 autofl: 1e-09; Resorufin fluor: inactive; A488 autofl: inactive

How did COc1cc(CSc2nnnn2-c2ccc(C)cc2)cc(OC)c1OC do in these assays?
AID923: -1.9%; A647 autofl: 1.15e-08; Resorufin fluor: inactive; A488 autofl: inactive; TSHR agonist: inconclusive

What do the screens show for `O=C(NCCc1c[nH]c2ccccc12)[C@H]1C[C@@H]1[C@H](NP(=O)(c1ccccc1)c1ccccc1)c1ccccc1`?
AID923: 1.1%; TSHR agonist: 3.0%

Some of these compounds in order of molar mass, high to low.
Results for CCC(=O)N1CCc2cc(S(=O)(=O)NC(Cc3ccccc3)C(=O)NC3CCCC3)ccc21 (centres undefined) ?
AID923: 0.0%; A647 autofl: 1e-09; Resorufin fluor: inactive; A488 autofl: inactive; TSHR agonist: 7.4%

Results for Cn1cccc1Cc1nnc(SCC(=O)N2CCc3ccccc32)n1-c1ccc(F)cc1 ?
AID923: -1.1%; TSHR agonist: -4.5%

What do the screens show for `c1ccc(-c2nc3ccccc3s2)nc1`?
AID923: 0.5%; A647 autofl: 1e-09; Resorufin fluor: inactive; A488 autofl: inactive

This is a subset. The share of hits here may be higher or lower than overall.
